GALR2 agonist = GALR2 (human) receptor agonism; 140,000 tested, 0.48% active; GALR2-expressing cells, agonist activation read-out; activation, %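 (tested at 5 µM)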;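 active = above mean plus 3 SD of all compounds, about 5% in these data, not always enough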;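 also: 0% = vehicle buffer wells and 100% = reference agonist at full effect; tested in CHO reporter cells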
Target sequence (O43603 whole entry, looked up): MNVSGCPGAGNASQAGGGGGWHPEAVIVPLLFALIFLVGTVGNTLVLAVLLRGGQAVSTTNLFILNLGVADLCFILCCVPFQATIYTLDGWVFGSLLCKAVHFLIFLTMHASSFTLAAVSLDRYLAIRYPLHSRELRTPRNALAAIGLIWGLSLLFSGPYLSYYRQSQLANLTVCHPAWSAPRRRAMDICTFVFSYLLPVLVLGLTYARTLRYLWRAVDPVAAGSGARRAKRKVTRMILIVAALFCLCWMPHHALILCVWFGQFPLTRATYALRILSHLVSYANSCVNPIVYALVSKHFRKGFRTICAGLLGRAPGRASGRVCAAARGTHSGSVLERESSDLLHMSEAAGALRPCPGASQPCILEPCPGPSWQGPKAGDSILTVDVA
PKD1 kinase inh = PKD1 (human) kinase inhibition. inhibition, %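 (about 10 µM by stock and volumes)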. PKD1 kinase fluorescence polarization assay. Q15139. 200,000 tested, 0.056% active;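 active = inhibition of 50% or more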;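 also: controls were vehicle for no effect and a reference inhibitor for full effect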
Insulin prom inh = TRM-6 insulin promoter activity inhibition | 130,000 tested, 0.9% active | TRM-6 cells (human fetal islet line), insulin promoter-eGFP reporter, imaging; reporter expression induced with tamoxifen | inhibition, % at 2 µM;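 active = inhibition above the mean plus 3 SD, with well images judged a real hit on visual review, cut at about 60% in these data, passing the limit was not always enough; inconclusive = inhibition over the cutoff but images rejected on review; inactive = inhibition not above the cutoff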
HSV replic up = increases HSV replication in cells | HSV replication augmentation in cells, fold increase | maximum fold increase | 220,000 tested, 0.005% active;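 active = peak rise of 1.5-fold or more in the series; inconclusive = self-fluorescent or not available for retest; tested in PC3 cells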;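 also: first round at 10 µM; read as green reporter fluorescence; hits show the peak of a series up to 25 µM; 1 = signal of infected wells without compound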
RGS16-Gao HTS = RGS16-Galphao interaction regulator (human). 220,000 tested, 0.38% active. bead-based flow cytometry RGS16-Galphao binding, fluorescence; actives lie on both sides. O15492+P09471. binding response (% of control), % at 10 µM;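 active = below 25% or above 175%, edge rows of some plates excepted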;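 also: Galphao activated by GDP with aluminum fluoride before binding; 100% = wells without compound and 0% = beads without RGS; some results beyond the cut were filed as inactive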
Target sequence (O15492 whole entry, looked up): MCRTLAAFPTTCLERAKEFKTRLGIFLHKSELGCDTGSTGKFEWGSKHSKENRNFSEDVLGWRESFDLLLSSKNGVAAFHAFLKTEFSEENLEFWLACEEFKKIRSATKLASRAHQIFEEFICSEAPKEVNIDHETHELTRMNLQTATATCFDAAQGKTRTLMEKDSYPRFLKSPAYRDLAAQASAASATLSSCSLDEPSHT
Target sequence (P09471 whole entry, looked up): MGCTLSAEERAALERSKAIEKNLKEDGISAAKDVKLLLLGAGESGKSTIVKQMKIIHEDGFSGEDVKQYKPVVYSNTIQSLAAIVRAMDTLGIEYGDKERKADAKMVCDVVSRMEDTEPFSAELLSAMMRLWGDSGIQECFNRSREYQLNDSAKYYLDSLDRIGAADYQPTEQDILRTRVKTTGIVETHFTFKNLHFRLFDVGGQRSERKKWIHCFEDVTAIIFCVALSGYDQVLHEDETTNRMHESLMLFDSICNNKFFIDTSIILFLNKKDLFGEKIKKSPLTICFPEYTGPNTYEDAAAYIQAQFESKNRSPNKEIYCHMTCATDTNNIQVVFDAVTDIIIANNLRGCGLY
Insulin prom inh cell count = recorded beside Insulin prom inh, whose call it bears; normalized cell count, %; measured here: cell count, toxicity; reference of the scale not given here;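 cells exposed to compound for 48 h; stained nuclei by imaging scaled within each plate; lower means fewer cells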
HSV replic up primary fold = second read-out of HSV replic up, no call of its own (marks repeat the call); fold increase; compound at 10 µM; measured here: primary screen fold increase 10 uM; tested in PC3 cells;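 GFP signal in the first replicate; 1 = infected wells without compound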
An asterisk follows results filed as active; i = inactive; ? = inconclusive; / = no result given.

Results follow in this order: GALR2 agonist	PKD1 kinase inh	Insulin prom inh	Insulin prom inh cell count	HSV replic up	HSV replic up primary fold	RGS16-Gao HTS
- CC(=O)c1ccc(N2CCN(C(=S)Nc3ccccc3C(F)(F)F)CC2)cc1
→ /	8	-32	63	i	1.2	99
- O=C(CSc1nc2c(cnn2-c2ccccc2)c(=O)[nH]1)N1CCOCC1
→ -0.4	-5	33	135	i	1	101
- c1ccc(N2CCN(Cc3cnc(N4CCOCC4)s3)CC2)cc1
→ /	5	/	/	i	1	101
- CC(C)NC(=O)c1n[nH]c(=O)c2ccccc12
→ -0.6	-11	18	97	i	0.87	108
- CCNc1nc(NCC)nc(N/N=C(\C)c2ccc(OC)cc2)n1
→ /	-4	/	/	i	1	98
- COC(=O)c1cc(C(=O)OC)cc(N2C(=O)CC(Sc3nc(C)cc(C)n3)C2=O)c1 (configuration not stated)
→ 0.0	-6	-8	87	i	1.1	96
- CN(C)CCCn1c(SCC(=O)N2c3ccccc3Sc3ccccc32)nc2ccccc2c1=O
→ 3.4	4	/	/	i	0.88	106
- Nc1nc(CN2CCN(c3ccc(F)cc3)CC2)nc(N2CCCc3ccccc32)n1
→ -1.7	-2	/	/	i	0.73	107
- Cc1[nH][nH]c(=O)c1C(c1ccc(-c2ccc(C(=O)O)cc2)o1)c1c(C)[nH][nH]c1=O
→ /	14	/	/	i	1.1	73
- COc1ccc(C(=O)N/C(=C\c2ccco2)C(=O)NCCCn2ccnc2)cc1
→ 0.5	0	-61	84	i	1.1	97
- CC(C)CC(=O)Nc1ccc(Oc2ccc(NC(=O)CC(C)C)cc2)cc1
→ -1.9	-5	44	99	i	0.96	97
- Cc1cc(C)n2nc(C(=O)NNC(=O)c3ccc(Cl)cc3)nc2n1
→ /	/	/	/	i	0.93	90
- O=C(NNc1ccccc1F)c1ccccc1
→ /	/	/	/	i	1	97
- COc1cc(/C=C2\SC(=Nc3c(C)n(C)n(-c4ccccc4)c3=O)NC2=O)ccc1O
→ -0.1	-4	-52	147	?	/	98
- COc1ccccc1N1CCN(C(=O)c2ccc(Br)s2)CC1
→ -0.3	-2	/	/	i	0.8	101

Results follow in this order: GALR2 agonist	PKD1 kinase inh	Insulin prom inh	Insulin prom inh cell count	HSV replic up	HSV replic up primary fold	RGS16-Gao HTS
- Cc1cccc(CN2CCN(CC(=O)NCCCN3CCN(c4ccc(F)cc4)CC3)C2=O)c1
→ -0.6	0	-3	55	i	0.99	99
- O=C(N/N=C/c1ccc(Cl)cc1)Nc1ccccc1
→ -0.2	-4	-9	142	i	0.86	106
- O=C(/C=C/c1cccs1)Nc1ccc(N2CCOCC2)c(S(=O)(=O)Nc2cc(Cl)ccc2Cl)c1
→ -1.8	-5	17	92	i	0.87	104
- COC(=O)C1=C(C)N(C)C(C)=C(C(=O)OC)C1c1ccc(Cl)cc1
→ -1.2	-7	10	85	i	0.84	105
- COc1ccc(C(=O)N/N=C/c2sc(N3CCOCC3)nc2-c2ccccc2)cc1OC
→ /	-5	53	92	i	0.82	111
- CC(C)(C)c1cc[n+](CC(=O)Nc2cc(C(F)(F)F)ccc2N2CCOCC2)cc1
→ /	0	67	106	i	0.96	102
- COC(=O)c1ccc(C2NC(=O)NC(C)=C2C(=O)N(C)C)cc1 (configuration not stated)
→ -2.2	-14	-3	110	i	0.97	100
- CC1(C)CC(=O)c2sc(NC(=O)C(C)(C)C)nc2C1
→ /	0	/	/	i	1.1	104
- COCCN1CCc2[nH]c(=S)[nH]c(=O)c2C1
→ 0.4	1	/	/	i	1	218
- CCOC(=O)c1c(NC(=O)CN2C(=O)NC(C)(c3ccc(Cl)cc3)C2=O)sc(C(=O)NC)c1C (configuration not stated)
→ 1.0	-1	/	/	i	0.84	115
- Cc1cccc(C(=O)Oc2ccccc2-c2nnco2)c1
→ -0.9	-3	7	49	i	0.88	101
- O=C(CSCC(=O)OCn1nnc2ccccc2c1=O)Nc1ccc(Cl)cc1
→ -1.1	-6	-45	115	/	/	99
- Cc1c(NC(=O)/C(=C\c2ccccc2)NC(=O)c2ccccc2)c(=O)n(-c2ccccc2)n1C
→ -3.8	-1	17	117	i	1	100
- COc1cccc2c(SCC(=O)N/N=C/c3ccc(O)cc3O)cc(C)nc12
→ /	-2	/	/	i	0.57	97
- CSCC(=O)Nc1ccc(F)c(Cl)c1
→ /	/	/	/	i	0.88	103

Results follow in this order: GALR2 agonist	PKD1 kinase inh	Insulin prom inh	Insulin prom inh cell count	HSV replic up	HSV replic up primary fold	RGS16-Gao HTS
- Cc1ccc(C(C2=C(O)CC(C)(C)CC2=O)C2C(=O)CC(C)(C)CC2=O)s1 (configuration not stated)
→ -3.6	6	/	/	i	0.77	70
- O=C(c1ccc(N2CCCCC2)c([N+](=O)[O-])c1)N(Cc1ccccc1)c1ccccn1
→ -0.5	-2	-8	96	i	0.92	102
- CCC1=C(OC(=O)N(CC)CC)N2C(=O)OC(=NCCc3c[nH]c4ccccc34)[C@]2(Cc2ccccc2)[C@H]2C1=CC[C@H]1C(=O)N(C)C(=O)[C@H]12
→ /	/	/	/	i	0.92	96
- CCCCCCCC1(C)NC(=O)N(c2ccccc2)N1 (configuration not stated)
→ -1.8	0	38	186	i	1	85
- C/C(=N\NC(=S)Nc1ccccc1C)c1cc2ccccc2o1
→ /	/	/	/	i	1	101
- Cn1c(SCc2ccccn2)nc2c1c(=O)[nH]c(=O)n2C
→ /	/	/	/	i	0.91	99
- COc1cc(NC(=O)C(Cc2ccccc2)n2cccc2)cc(OC)c1 (configuration not stated)
→ /	/	/	/	i	1	102
- CCCCN(CCCC)C(=S)NC(=O)C(C)(C)C
→ -0.7	-10	31	88	i	0.84	100
- CC(=O)c1c(C)[nH]c(C(=O)NCCc2ccccc2)c1C
→ -1.7	-9	/	/	i	0.99	104
- CC(C)C(=O)Nc1ccc(Cc2ccc(NC(=O)C(C)C)c(O)c2)cc1O
→ -0.6	3	24	103	i	0.71	100
- CCCCOc1ccc(/C=N/NC(=S)Nc2cc(C)ccc2C)cc1
→ -2.8	-7	3	95	i	0.62	101
- CCOC(=O)/C(C#N)=C/C1=C(N2CCOCC2)CC(C)(C)OC1
→ /	/	/	/	i	0.94	97
- CCOC(=O)C1=C(C)N=C(/N=C/N(C)C)SC1c1ccccc1 (configuration not stated)
→ -2.5	-1	/	/	i	1.1	104
- COc1ccc(Nc2cc(C)nc3nc(C)nn23)c(OC)c1
→ -1.4	-2	41	124	i	0.97	112
- COc1ccc(CNC2=CC(=O)CC(C)(C)C2)cc1
→ -0.6	0	0	198	i	0.92	107

Results follow in this order: GALR2 agonist	PKD1 kinase inh	Insulin prom inh	Insulin prom inh cell count	HSV replic up	HSV replic up primary fold	RGS16-Gao HTS
- COc1cccc(N2CCN(C(=O)c3ccc4nc(N5CCCCC5)sc4c3)CC2)c1
→ -2.6	-1	/	/	i	0.85	103
- COC(=O)c1ccc(C(C(=O)NCc2ccccc2)N(Cc2ccco2)C(=O)c2cnccn2)cc1 (configuration not stated)
→ -1.2	-13	-94	88	i	0.89	99
- Cc1nn(C)cc1/C=C1\SC(=S)NC1=O
→ -0.7	6	-13	137	i	1	101
- CCOC(=O)c1ccc(NC(=O)c2nn(CC)cc2Br)cc1
→ -2.4	7	-186	73	i	1.1	102
- CC1(C)CC(=O)c2cnc(NC(=O)CCc3ccccc3)nc2C1
→ -0.1	-6	44	80	i	0.96	257
- CCC(NC(=O)c1ccccc1NC(=O)c1ccc(OC)cc1)C(=O)N1CCCC1 (configuration not stated)
→ -0.5	8	-47	170	i	0.93	114
- COC(=O)c1cc(-c2ccc(S(=O)(=O)N3CCCC(C)C3)cc2)c(C(F)(F)F)s1 (configuration not stated)
→ /	/	/	/	i	0.58	102
- O=C(NNC(=S)Nc1ccccc1)C1CC1
→ -3.5	1	/	/	i	0.72	98
- O=C(NC(=S)N1CCCCC1)c1cccnc1
→ -1.6	-7	11	104	i	1.1	51
- COc1ccc(C(CCc2ccc(C)o2)NC(=O)Nc2ccc(OC)cc2OC)cc1 (configuration not stated)
→ -1.6	-16	0	117	i	0.96	110
- COc1ccc(/C=N/NC(=O)c2ccc(Br)cc2)c(OC)c1
→ /	0	/	/	i	1.1	98
- O=S(=O)(NCc1ccccc1)c1cccs1
→ -0.8	1	-16	161	i	1	98
- CSc1ccc(NC(=O)N2CC(C)OC(C)C2)cc1 (configuration not stated)
→ 0.3	9	/	/	i	0.91	102
- Cc1nn(Cc2c(F)c(F)c(F)c(F)c2F)c(C)c1NC(=O)c1cccc(COc2ccc(Cl)cc2)c1
→ -0.3	0	/	/	i	0.97	103
- Cc1ccc(C)c(Cc2c(C)nc(C)[nH]c2=O)c1
→ -1.4	-1	0	96	i	0.91	109

Results follow in this order: GALR2 agonist	PKD1 kinase inh	Insulin prom inh	Insulin prom inh cell count	HSV replic up	HSV replic up primary fold	RGS16-Gao HTS
- O=C(NCC1CCCO1)C(Cc1ccccc1)N1C(=O)C2C3C=CC(C4CC34)C2C1=O (configuration not stated)
→ /	8	45	101	i	0.97	104
- Cc1c(C(=O)Nc2ccc(N3CCOCC3)cc2)cccc1[N+](=O)[O-]
→ /	-2	/	/	i	0.98	88
- CC(=O)Oc1cccc(/C=c2\sc3nc(-c4ccco4)nn3c2=O)c1
→ -2.2	-5	30	90	i	0.96	102
- CC(C)Cc1cc(C(=O)Nc2cccc(O)c2)no1
→ /	/	/	/	i	0.97	107
- Cn1c(SCC(=O)Nc2ccccc2)nnc1-c1ccc(NC(=O)CCc2ccccc2)cc1
→ 0.8	7	30	152	i	0.81	106
- Cc1ccccc1N(CC(=O)NCCSCc1ccco1)S(C)(=O)=O
→ -2.9	-2	-27	136	i	1	96
- NC(=O)CSc1cn(Cc2ccccc2)c2ccccc12
→ /	-3	-41	103	i	1	108
- O=C(COc1ccc(Cl)cc1)NCc1nnc2c3ccccc3c(-c3ccccc3)nn12
→ 1.0	-1	/	/	i	0.78	114
- O=C(Nc1ccccc1)c1c(F)c(F)c(F)c(F)c1F
→ -0.4	2	7	126	i	0.71	99
- CC(C)CC(NC(=O)C1CCC(C)CC1)C(=O)Nc1ccc2c(c1)OCCO2 (configuration not stated)
→ -4.1	31	/	/	i	1.1	98
- COc1cc(N2CCCC2)c(OC)cc1/C=C(/C#N)c1cccc(F)c1
→ -3.2	-3	-35	98	?	/	95
- COc1ccc(-c2nnc(SC(C)C#N)o2)cc1 (configuration not stated)
→ 0.1	-18	/	/	i	0.94	108
- COc1ccc(OC(C)C(=O)Nc2ccccc2C(F)(F)F)cc1 (configuration not stated)
→ -0.5	5	-9	154	i	0.82	104
- CCCc1nc(SCc2cccnc2)c2c(=O)n(C)c(=O)n(C)c2n1
→ 0.8	-19	/	/	i	0.91	91
- CC(C)(Oc1ccc(Cl)cc1)C(=O)Nc1ccncc1
→ -5.0	-2	5	74	i	0.96	100
- COc1ccc2nc(NC(=O)CSc3nnnn3C3CCCCC3)sc2c1
→ 0.1	1	-11	95	i	0.64	90
- Cc1oc2c(c1C(=O)N1CCC(C)CC1)C(=O)c1ccccc1C2=O
→ -1.6	-7	22	94	i	0.4	51

Molecules listed so far that have an aryl thioether with sulfur outside any ring:
Results follow in this order: GALR2 agonist	PKD1 kinase inh	Insulin prom inh	Insulin prom inh cell count	HSV replic up	HSV replic up primary fold	RGS16-Gao HTS
- O=C(CSc1nc2c(cnn2-c2ccccc2)c(=O)[nH]1)N1CCOCC1
→ -0.4	-5	33	135	i	1	101
- COC(=O)c1cc(C(=O)OC)cc(N2C(=O)CC(Sc3nc(C)cc(C)n3)C2=O)c1 (configuration not stated)
→ 0.0	-6	-8	87	i	1.1	96
- CN(C)CCCn1c(SCC(=O)N2c3ccccc3Sc3ccccc32)nc2ccccc2c1=O
→ 3.4	4	/	/	i	0.88	106
- COc1cccc2c(SCC(=O)N/N=C/c3ccc(O)cc3O)cc(C)nc12
→ /	-2	/	/	i	0.57	97
- Cn1c(SCc2ccccn2)nc2c1c(=O)[nH]c(=O)n2C
→ /	/	/	/	i	0.91	99
- CSc1ccc(NC(=O)N2CC(C)OC(C)C2)cc1 (configuration not stated)
→ 0.3	9	/	/	i	0.91	102
- Cn1c(SCC(=O)Nc2ccccc2)nnc1-c1ccc(NC(=O)CCc2ccccc2)cc1
→ 0.8	7	30	152	i	0.81	106
- NC(=O)CSc1cn(Cc2ccccc2)c2ccccc12
→ /	-3	-41	103	i	1	108
- COc1ccc(-c2nnc(SC(C)C#N)o2)cc1 (configuration not stated)
→ 0.1	-18	/	/	i	0.94	108
- CCCc1nc(SCc2cccnc2)c2c(=O)n(C)c(=O)n(C)c2n1
→ 0.8	-19	/	/	i	0.91	91
- COc1ccc2nc(NC(=O)CSc3nnnn3C3CCCCC3)sc2c1
→ 0.1	1	-11	95	i	0.64	90

Screening data from PubChem BioAssay.
